D2 potentiator: positive allosteric modulators of human D2 dopamine receptor; 360,000 compounds, 0.23% hits; P14416; DiscoveRx D2 beta-arrestin cells, luminescence, 90 min; 100% = 57 uM dopamine signal; AID 624464; potentiation, % (concentration not given with the values); active = potentiation of 50% or more; inconclusive = 30% to 50%; inactive = 30% or less;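 also: tested on top of an EC20 dose of dopamine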
Target sequence (P14416 whole entry, looked up): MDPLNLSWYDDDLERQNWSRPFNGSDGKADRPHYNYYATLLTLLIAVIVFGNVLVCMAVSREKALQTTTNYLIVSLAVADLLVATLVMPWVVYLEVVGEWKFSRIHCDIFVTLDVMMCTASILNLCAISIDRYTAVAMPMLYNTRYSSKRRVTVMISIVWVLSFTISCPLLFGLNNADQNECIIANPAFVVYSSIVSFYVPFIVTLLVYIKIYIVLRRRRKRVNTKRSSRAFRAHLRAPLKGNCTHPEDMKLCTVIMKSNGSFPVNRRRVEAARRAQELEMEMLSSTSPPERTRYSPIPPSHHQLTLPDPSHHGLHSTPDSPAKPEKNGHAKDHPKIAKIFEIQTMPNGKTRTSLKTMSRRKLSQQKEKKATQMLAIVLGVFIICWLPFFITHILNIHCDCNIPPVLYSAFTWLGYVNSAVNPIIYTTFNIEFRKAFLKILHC
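D2 cells co-treated with compound plus 50 nM dopamine (EC20) for 90 min at 37 deg C to detect potentiation. Beta-arrestin recruitment was read as enzyme-fragment luminescence after 1 h at ambient temperature. Full response was set by 57 uM dopamine.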
PINK1 expr mod: changes PINK1 expression | PINK1 immunofluorescence, high-content cytometry, 24 h | 410,000 compounds, 0.2% hits | Potency, µM (highest dose often 76.6 µM), inactives show top-dose activation (PINK1 increase), hits mostly activators; active = well fitted activation curve with a large enough effect; inconclusive = small, poorly fitted or top-dose-only effect; inactive = flat fitted curve, though single readings scatter; cell line not stated here;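 also: potency is read from the fitted curve at half-maximal effect; % of control where 0% means no effect; nearly all actives have a fitted effect of over 65% in size; a mitochondrial uncoupler was the plate control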
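Decision-based qHTS: stable cells, 24 h exposure to five compound concentrations, CCCP as control. Fixed cells stained for PINK1 plus nuclear, mitochondrial and cell markers, cytometer read.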
TRPML1 blocker: blocks the human TRPML1 channel. 390,000 compounds, 0.02% hits. TRPML1-inducible cells, Ca2+ dye fluorescence, FDSS; stronger effect = lower value; inhibition of EC80 agonist-evoked calcium signal. activity change, negative = inhibition, % (no concentration beside the values). Q9GZU1; in the data active means activity change below about -50%; inconclusive means about -30% to -50%; inactive means above about -30%;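 also: stimulus is agonist 54-4 at its EC80 concentration; % is scaled to controls: 0 for no effect and ±100 for the full control effect; compound concentration not given in the record; the text of the record puts the active cut at -80%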
Target sequence (Q9GZU1 whole entry, looked up): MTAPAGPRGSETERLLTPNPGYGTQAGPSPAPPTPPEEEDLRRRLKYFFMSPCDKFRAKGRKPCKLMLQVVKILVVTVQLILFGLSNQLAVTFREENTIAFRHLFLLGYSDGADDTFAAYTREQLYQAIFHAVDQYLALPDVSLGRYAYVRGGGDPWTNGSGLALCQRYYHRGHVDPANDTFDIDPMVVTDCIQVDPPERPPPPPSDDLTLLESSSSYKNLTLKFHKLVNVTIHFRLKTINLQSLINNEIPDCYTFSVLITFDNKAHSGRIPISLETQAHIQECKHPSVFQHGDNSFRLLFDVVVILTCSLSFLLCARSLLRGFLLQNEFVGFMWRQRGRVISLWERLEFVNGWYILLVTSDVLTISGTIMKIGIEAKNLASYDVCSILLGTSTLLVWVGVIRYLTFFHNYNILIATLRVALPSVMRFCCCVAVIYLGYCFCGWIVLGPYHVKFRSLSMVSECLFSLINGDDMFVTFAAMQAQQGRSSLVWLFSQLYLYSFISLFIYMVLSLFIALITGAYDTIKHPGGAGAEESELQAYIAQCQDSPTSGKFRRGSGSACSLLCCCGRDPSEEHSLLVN
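Calcium fluorescence in TRPML1-DL cells induced overnight with Tet: a 110 s read after compound pin addition, then a 110 s antagonist read after challenge with 54-4 at 4 uM final (EC80).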
Six1-Eya2 inh: Six1/Eya2 interaction inhibition; AlphaScreen GST-Six1/His-Eya2 binding, biochemical; stronger effect = lower value; control for the full effect not named in the record; activity change, % (test concentration not listed); 360,000 compounds, 0.56% hits; AID 651725; in the data active = activity change below about -65%; inconclusive = about -30% to -65%; inactive = above about -30%; also: % is scaled to controls: 0 for no effect and ±100 for the full control effect
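GST-Six1 + His-Eya2 (5X stock: 250/500 nM); Tris pH 8.0, 300 mM NaCl, 0.05% BSA, 0.02% Tween 20; GSH donor/Ni acceptor beads; 1 h 37 °C dark; AlphaScreen readout.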
TRPML1 ag: agonists of human TRPML1 channel. activation, % (test concentration not listed). TRPML1-expressing cells, Ca2+ dye fluorescence, FDSS; host cell line not named in the record; reference of the full effect not given here. AID 624414. 410,000 compounds, 0.12% hits; in the data active = activation above about 50%; inconclusive = about 30% to 50%; inactive = below about 30%; also: 0% is about no effect; the text of the record puts the active cut at 80%
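Cells: TRPML1-DL, 1X Tet inducer, ~16 h at 37 degrees C/5% CO2. Dye: ABD Ca8 no-wash + quencher, 45-90 min RT. Read: 10 s baseline, compound add, 110 s agonist phase; 54-4 EC80 (4uM final), 110 s antagonist phase.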
D2 ag: activates the human D2 dopamine receptor | DiscoveRx PathHunter D2 beta-arrestin, luminescence, 90 min; 100% = 57 uM dopamine signal | activation, % (no concentration beside the values) | 360,000 compounds, 0.084% hits | AID 624465; in the data active = activation above about 40%; inconclusive = about 15% to 40%; inactive = below about 15%; also: compound concentration not given in the record; the text of the record calls up to 30% inactive
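Agonist mode: compounds alone added to overnight-plated D2 PathHunter cells for 90 min at 37 C, with 57 uM final dopamine (EC100) defining full response. Beta-arrestin recruitment detected by chemiluminescent reagent, read after 1 h at ambient temperature.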
* marks the source's active call; other numbers are inactive results; ? = inconclusive; . = no result given; & = joins results of further samples; [ ] = another dose, or the depositor's remark. Rows are unselected; about 1% have a hit in one of these screens.

SMILES	D2 potentiator	PINK1 expr mod	TRPML1 blocker	Six1-Eya2 inh	TRPML1 ag	D2 ag
Cc1cc(NC(=O)c2n[nH]c(=O)c3ccccc23)ccc1Br	-2	5.9%	16	-6	-0.1	-1.5
O=C(COc1ccccc1)N1CCN(S(=O)(=O)c2ccc(Br)cc2)CC1	-6	-1.4%	11	2	3.5	3.2
CCOc1ccc(S(=O)(=O)NCc2ccc(OC)cc2)c2cccnc12	-15	-0.8%	5	1	1.0	-0.3
OCc1ccccc1-c1cnc2cccnn12	-3	0.1%	.	1	-0.3	-3.8
CCN(C(=O)c1cn(C)c(=O)c2ccccc12)c1ccccc1F	-4	0.9%	9	-8	-1.5	-2.0
Cc1nnc(SCC(=O)Nc2ncc3c(n2)CCCC3=O)s1	-20	1.6%	-16	-8	-0.1	0.1
O=C(Nc1ccc2oc(-c3ccc4ccccc4c3)nc2c1)c1ccccc1F	.	4.4%	-13	.	0.9	.
CCCC(=O)Nc1ccc2oc(-c3ccncc3)nc2c1	-6	6.4%	7	-1	-0.3	-0.6
COc1ccccc1N1CCN(c2ncnc3c2nc2n3CCCC2)CC1	.	0.0%	36	.	0.2	.
Cc1ccc(C(=O)NCC(=O)OCc2nnc(-c3ccc([N+](=O)[O-])cc3)o2)s1	?	-3.2%	-2	-14	-1.1	2.9
COc1ccccc1N1CCN(Cc2nc(N)nc(Nc3ccccc3)n2)CC1	-14	0.5%	1	-12	0.0	0.1
COc1cccc(-c2ccc(C#N)c(SCC(=O)NCCc3ccc(Cl)cc3)n2)c1	-4	14%	3	1	4.4	-2.1
Cc1ccccc1-n1nnnc1SCC(=O)N(C)C1CCS(=O)(=O)C1 (stereo not given)	-1	0.3%	0	0	-0.5	2.0
CC(=O)Nc1cccc(/C(C)=N/NC(=O)c2ccccc2Cl)c1	5	4.6%[38.3 µM]	0	0	0.0	-0.6
O=C(NC1CCCCC1)NC1(C(=O)NCCCN2CCOCC2)CCCCC1	-3	-1.8%	-10	27	-0.3	-7.5
COc1ccc(NC(=O)CSc2ccc([N+](=O)[O-])cc2)cc1S(=O)(=O)N1CCOCC1	-3	0.6%	67	-2	0.0	6.3
CC(C)(C)c1ccc(C(=O)NCC(=O)N2CCCC2)cc1	-7	1.9%	7	0	-0.2	-0.4
Cc1ccc(N2CC(C(=O)Nc3ccc(S(=O)(=O)NCC4CCCO4)cc3)CC2=O)cc1C (stereo not given)	-3	7.0%	6	9	1.7	-2.6
COc1ccc(-c2cc(CNc3nc4cc(-c5ccccc5C)sc4c(=O)n3C)on2)cc1	-14	0.4%	.	-7	-0.5	-4.0
CCCn1c(COc2cccc(C)c2)nc2ccccc21	.	2.7%	8	.	3.8	.
N#Cc1ccc(C(=O)Nc2nnc(-c3ccccn3)o2)cc1	-9	6.5%	9	?	-0.4	-3.5
S=C(Nc1ccc(Nc2ccccc2)cc1)NC1CCCCCC1	4	?	8	-28	0.2	-10
Cc1ccccc1NC(=O)Cc1nc(COC(=O)/C=C/c2ccc(F)cc2)cs1	-5	0.9%	-11	-22	0.1	2.5
CCOC(=O)C1CCCN(C(=O)c2cc(=O)c3ccccc3o2)C1 (stereo not given)	15	-0.1%	-10	4	-0.8	-1.7
Cc1ccc(CNC(=O)C2(c3cccs3)CCOCC2)cc1	-12	1.0%&0.9%	-2&8	9	-0.8&-0.4	-5.2
Cc1ccc(-n2c(=S)sc3c(=O)n(-c4ccccc4C)c(SCC(=O)O)nc32)cc1C	0	2.2%	2	-3	0.0	-1.6
CC(C)(C)OC(=O)N[C@@H](Cc1ccccc1)C(=O)N[C@@H](CO)[C@H](O)[C@@H]1C[C@@H]1C(=O)N1CCCC1	-11	2.5%	51	4	-0.1	0.3
N#CNC(N)=Nc1cccc(Cl)c1	-3	-2.0%	-3	8	1.7	-0.2
COc1ccccc1NC(=S)N(CCN(C)C)C(C)c1ccncc1 (stereo not given)	-16	-0.1%	3	7	-0.8	-5.1
Cc1ccc(OC(C)C(=O)N2CC(=O)Nc3ccccc32)c(C)c1 (stereo not given)	-4	0.8%	7	2	1.4	-2.7

The list goes on, overlapping the part above by 5 compounds.
SMILES	D2 potentiator	PINK1 expr mod	TRPML1 blocker	Six1-Eya2 inh	TRPML1 ag	D2 ag
Cc1ccc(-n2c(=S)sc3c(=O)n(-c4ccccc4C)c(SCC(=O)O)nc32)cc1C	0	2.2%	2	-3	0.0	-1.6
CC(C)(C)OC(=O)N[C@@H](Cc1ccccc1)C(=O)N[C@@H](CO)[C@H](O)[C@@H]1C[C@@H]1C(=O)N1CCCC1	-11	2.5%	51	4	-0.1	0.3
N#CNC(N)=Nc1cccc(Cl)c1	-3	-2.0%	-3	8	1.7	-0.2
COc1ccccc1NC(=S)N(CCN(C)C)C(C)c1ccncc1 (stereo not given)	-16	-0.1%	3	7	-0.8	-5.1
Cc1ccc(OC(C)C(=O)N2CC(=O)Nc3ccccc32)c(C)c1 (stereo not given)	-4	0.8%	7	2	1.4	-2.7
O=C1CN(C(=O)COC(=O)c2cccs2)c2ccccc2N1	-1	-0.6%	4	4	-0.2	-5.3
CCc1ccc(-c2csc3ncn(CC(=O)NCc4ccco4)c(=O)c23)cc1	5	7.4%	-6	-17	0.7	-0.2
Cc1ccc(C(=O)Nc2ccccc2N2CCCCC2)o1	-5	6.3%	26	-1	0.7	3.0
COc1ccc(C2=CSC3=NCCN23)cc1Br	-2	-1.0%	33	-5	1.6	-1.2
O=C(NCCCN1CCOCC1)c1cc(-c2ccccc2F)no1	-9	0.2%	-2	-2	0.3	-1.2
O=C(c1ccc(CS(=O)(=O)c2ccc(Br)cc2)o1)N1CCN(c2ncccn2)CC1	-13	1.7%	13	3	0.4	4.4
CCN(C(=O)CSc1nnc(NC2CCCCC2)s1)C1CCS(=O)(=O)C1 (stereo not given)	-10	-1.7%[38.3 µM]	31	3	1.5	-0.7
O=C(CSc1nc2c([nH]c3ccccc32)c(=O)n1-c1ccccc1)Nc1ccccc1C(F)(F)F	.	0.7%	2	.	-0.5	.
COC(=O)C(C)Oc1cc(OC(C)C(=O)OC)c2c(-c3ccccc3)cc(=O)oc2c1 (stereo not given)	-2	3.2%	0	0	-0.2	?
Nc1ccccc1C(=O)Nc1nccs1	-1	1.3%	-10	11	-0.2	3.4
COc1cccc2cc(C(=O)NCCc3c(C)[nH]c4ccc(F)cc34)c(=O)oc12	.	-0.1%	18	.	2.7	.
COc1ccc(OC)c(NC(=O)c2ccc(CN(c3cc(Cl)ccc3C)S(=O)(=O)c3ccccc3)cc2)c1	1	5.5%	-1	-6	-1.0	0.5
Cc1cccc(NC(=O)CN2C(=O)C(c3ccc(F)cc3)=NC23CCCCCC3)c1	.	0.5%	-7	.	0.5	.
O=c1oc2c3c4c(cc2c(C(F)(F)F)c1CCN1CCOCC1)CCCN4CCC3	-22	22%	-26	13	91*	-3.1
CN(C)S(=O)(=O)N1CCC(Oc2cccc(C(=O)N3CCSCC3)c2)CC1	-4	2.0%	6	7	0.0	2.5
CCOC(=O)c1c(-c2ccc(C)o2)csc1NC(=O)CSc1nnc(C)s1	-17	-3.9%[38.3 µM]	-8	-17	2.5	1.2
COc1ccc(S(=O)(=O)N2CCN(C)CC2)c2ccccc12	-4	-0.7%	-13	-3	0.1	-3.2
CN(C)c1cccc(C(=O)Nc2cccc(S(=O)(=O)NC3=NCCC3)c2)c1	-10	0.5%	20	-9	0.3	-1.1
CC(=O)c1sc(NC(=O)C2CCN(C(=O)c3ccccc3C)CC2)nc1-c1ccccc1	12	5.4%	28	-12	2.7	-3.5
O=C(NCc1ccccc1)C1CCCN(S(=O)(=O)c2ccc(F)cc2)C1 (stereo not given)	-2	-0.1%	3	-5	0.2	-0.6
N#C/C(=C/c1cn(-c2ccccc2)nc1-c1cccc(OCc2ccccc2)c1)C(=O)NCCCn1ccnc1	1	-0.2%	14	-27	0.9	1.3
COc1ccc(C(CCN)Cc2ccccc2)cc1 (stereo not given)	4	-0.1%	-16	12	0.8	-6.6
COc1ccc(C(CCNCc2ccc(OC(C)C)cc2)c2ccccc2OC)cc1 (stereo not given)	-13	-1.6%	-12	-10	0.8	-6.0
CCOc1ccc(S(=O)(=O)NCCc2csc3nc(-c4ccc(F)cc4)nn23)cc1	.	4.2%	20	.	3.1	.
CC(Oc1ccc(Cl)cc1Cl)C(=O)OCC(=O)c1c(N)n(C)c(=O)n(C)c1=O (stereo not given)	-12	1.2%	18	-10	0.2	-2.5
Cc1ccc(Sc2ncccc2COC(=O)NC(C)C)cc1	0	3.2%	11	12	-0.4	0.6
Cc1nnc(SC(C)C(=O)Nc2ccc(S(=O)(=O)N3CCCCCC3)cc2)s1 (stereo not given)	-14	-5.3%[38.3 µM]	8	4	0.1	-2.4
COc1ccc(N2CCN(C3C(=O)c4ccccc4N3C(C)=O)CC2)cc1 (stereo not given)	.	-0.1%	4	.	0.8	.
C=CCOC(=O)c1ccc(-n2cnc(C)n2)nc1	-3	-0.4%	-21	12	2.7	-3.7
COc1ccc([N+](=O)[O-])cc1N(CC(=O)N1CCN(Cc2ccccc2)CC1)S(C)(=O)=O	-10	-0.3%	-4	26	0.5	0.2
Cc1ccc(/C=C/c2onc(C)c2S(=O)(=O)N2CCC(C(=O)Nc3ccc(C)c(N(C)C)c3)CC2)cc1	.	1.0%	5	.	-0.5	.
Cc1cc(-c2ccc(C)c(S(=O)(=O)Nc3ccccc3C(F)(F)F)c2)on1	.	-0.2%	-13	.	0.8	.
Cc1c(S(=O)(=O)N2CCN(C(=O)c3ccco3)CC2)c(=O)n(C)c(=O)n1C	-6	-0.2%	58	-13	0.3	-3.8
c1cc(SSc2ccncc2)ccn1	-35	-0.5%	1	4	-0.4	0.1
CCOC(=O)c1ccc(N2C(=O)CC(N3CCCC(C)C3)C2=O)cc1 (stereo not given)	-11	6.3%[38.3 µM]	-5	-3	2.3	-1.7
Cc1cc(OCC(=O)Nc2nc3c(s2)CCCC3)cc(C)c1Cl	.	0.3%	-10	.	0.5	.
O=C(c1ccc(S(=O)(=O)N2CCCC2)cc1)N(Cc1ccco1)C1CCS(=O)(=O)C1 (stereo not given)	-11	-0.5%	-1	-2	-0.3	-1.1
CC(=O)c1cccc(N(CC(=O)NC2CCCCC2)C(=O)CNC(=O)c2cccs2)c1	-1	-2.2%	4	5	-0.4	0.0
Cc1cc(NC(=O)c2ccccc2NS(=O)(=O)c2c(C)c(C)cc(C)c2C)no1	0	-1.1%[38.3 µM]	15	3	0.1	3.6
CC1CC(C)(C)CC2(C1)NC(=O)N(CC(=O)N1CCN(S(=O)(=O)c3ccc(F)c(F)c3F)CC1)C2=O (stereo not given)	-1	-0.7%	9	-4	0.5	1.9
Clc1ccc(C=NC23CN4CN(CN(C4)C2)C3)cc1	2	1.5%	3	8	1.3	-0.4
O=C(CCN1C(=O)/C(=C/c2ccc(F)cc2)SC1=S)Nc1cc([N+](=O)[O-])ccc1O	2	?	-5	5	0.5	0.6
CC(=O)Nc1ccc(S(C)(=O)=O)c(C)c1	-2	-1.3%	-8	5	0.5	-1.4

Screening data as filed in PubChem.
